HTT prom inh – inhibitors of huntingtin promoter activity | HEK293 HTT promoter firefly luciferase reporter (activity 0% = vehicle and -100% = no light), 24 h | Potency, µM (series often up to 57.5 µM), for inactives: at the highest dose activity change, negative = inhibition, actives largely listed as inhibitors | 0.93% of 48,000 active | AID 1508623; active means well fitted inhibition curve with a large enough effect; inconclusive means small, poorly fitted or top-dose-only effect; inactive means no such curve, though single readings can be large or run the other way; further: nearly all actives have a fitted effect of over 50% in size
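Firefly luciferase readout (Dual-Glo, 10 min RT) after 24 h, 37 °C compound exposure (final up to 57.5 uM) of HEK293 reporter cells cultured 24 h beforehand; PTC124 at 50 uM final as control inhibitor; activity scaled vehicle 0%, zero RLU -100%.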
PMP22 txn – modulates PMP22 transcription in S16 Schwann cells. S16 Pmp22-F2sN Schwann cells (luciferase reporters placed in the Pmp22 gene), FLuc/NLuc coincidence luminescence, 24 h. Potency, µM (titrated, usually from 57.5 µM), for the others: top-dose activity change, negative = inhibition, hits mostly inhibitors. 2% of 43,000 active; active = clear falling dose curves in both reporters; inconclusive = both reporters move, but less clearly or upward; inactive = either reporter flat; the % is the NLuc reporter signal; further: on the % scale 0 is the no-effect control and ±100 the full control effect; some results filed as inactive show a strong effect at the top dose
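qHTS, 1536-well. Cells seeded, compounds added by pin tool, 24 h 37C. Nano-Glo reagent 1 (lysis/FLuc), 10 min RT, read; Stop&Glo, 10 min RT, read NLuc.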
An asterisk follows results filed as active; ? = inconclusive; . = no result given; [ ] = remark or other dose. Potency means the concentration at half of the fitted maximal effect.

SMILES	HTT prom inh	PMP22 txn
Nc1nc(N)c2nc(-c3cccc(O)c3)c(-c3cccc(O)c3)nc2n1	?	.
Cc1ccc(C)c(N2CCN(C(=O)CCS(=O)(=O)c3cc(Br)cc4c3N(C(=O)C3CC3)CC4)CC2)c1	?	-24%
CCc1cccc(NC(=O)CSc2ncc3c(n2)-c2ccccc2N(CC)S3(=O)=O)c1	?	-18%
CCc1ccc(S(=O)(=O)c2cn(Cc3ccccc3)c3cc(F)c(F)cc3c2=O)cc1	-18%	-3%
Cc1c(Cl)cccc1NC(=O)CSc1nc(=O)n(Cc2ccncc2)c2c1CCC2	-6%	?
CCOC(=O)c1c(C)[nH]c(C)c1S(=O)(=O)N1CCC(C(=O)NCc2ccc(F)cc2)CC1	-22%	6%
COc1ccc(OC)c(NC(=O)CN2CCCN(Cc3cc(C)ccc3C)S2(=O)=O)c1	-3%	?
CC(=O)Nc1ccc(NC(=O)C(Cc2ccccc2)N2Cc3ccccc3C2=O)cc1 (stereo not given)	-14%	-12%
Cc1cccc(-c2nc(CCNC(=O)c3ccco3)cs2)c1	-19%	-16%
O=C(CSC1=Nc2ccccc2N=C(c2ccc(F)cc2)C1)NCc1ccc(Cl)cc1	-27%	?
COc1ccc(Nc2cc(C(=O)NCCc3ccccc3)c3ccccc3n2)cc1OC	-8%	-11%
COc1cc(/C=C(\C#N)C(=O)NCC2CCCO2)ccc1O (stereo not given)	11%	?
O=c1c2sccc2n(Cc2cc(=O)n3ccccc3n2)c(=O)n1-c1cc(F)ccc1F	-7%	-5%
Cc1ccc(CN2C(=O)N(c3ccc(C)c(Cl)c3)S(=O)(=O)c3ccccc32)cc1	?	-15%
CCCCCC=CCC=CCCCCCCCC(=O)OCC	-2%	.
O=C(NCCCc1ccccc1)C1CCN(C(=O)N2CCOc3ccc(Cl)cc32)CC1	?	?
CN(C1CCCCC1)S(=O)(=O)c1ccc2c(c1)c(=O)c(C(=O)NCCc1ccccc1)cn2C	-2%[11.5 µM]	-32%
COc1cc(OC)c(N(C)C(=O)c2cn(C3CCCC3)c(=O)c3c2c2ccccc2n3C)cc1Cl	?	?
Clc1ccc(CCNc2nc3ccccc3c3nc(-c4ccccc4)nn23)cc1	-2%	-11%
Cc1ccc(C2CC(=O)n3nc(-c4cccc(C)c4)nc3S2)cc1 (stereo not given)	9%	-6%
O=c1[nH]cnc2c1ncn2[C@@H]1O[C@H](CO)[C@@H](O)[C@H]1O	4%	.
Cc1ccc(-c2cn3cccc(C)c3n2)cc1NS(=O)(=O)c1ccccc1	-7%	?
Cc1cc(N2CCN(C)CC2)nc2ccc(NC(=O)c3ccc(C(C)(C)C)cc3)cc12	?	?
COC(=O)c1sc(-c2ccccc2)cc1NC(=O)Nc1ccccc1Cl	-22%	-7%
CCOc1ccccc1N(CC(=O)NCCSc1ccccc1)S(=O)(=O)c1ccccc1	-18%	?

3 entries out of the list above, arranged by their value in HTT prom inh, falling.
structure | HTT prom inh
Clc1ccc(CCNc2nc3ccccc3c3nc(-c4ccccc4)nn23)cc1 | -2%
COc1ccc(OC)c(NC(=O)CN2CCCN(Cc3cc(C)ccc3C)S2(=O)=O)c1 | -3%
O=C(CSC1=Nc2ccccc2N=C(c2ccc(F)cc2)C1)NCc1ccc(Cl)cc1 | -27%

Next section.
SMILES	HTT prom inh	PMP22 txn
CCOc1ccccc1CNC(=O)CN1C(=O)CCn2nc(-c3cn(C)c4ccccc34)cc21	0%	-28%
CN(C(=O)CSc1cn(CC(=O)N2CCOCC2)c2ccccc12)c1ccccc1	10%	-4%
Cn1c(N2CCCCS2(=O)=O)nc(C(=O)NCc2ccc(F)cc2)c(O)c1=O	5%	.
CC(=O)Nc1ccc(OCCOCCOc2ccc(NC(C)=O)cc2)cc1	-9%	.
Cc1ccc2c(c1)c1c(c(=O)n(Cc3ccccc3)c(=O)n1Cc1cccc(F)c1)n2C	-8%	-17%
CC(=O)c1ccc(NC(=O)C(C)n2nc(-c3ccccc3)ccc2=O)cc1 (stereo not given)	-13%	-2%
COc1ccc(N2CCN(C(=O)Cn3cnc4sc(C)c(S(=O)(=O)N5CCC(C)CC5)c4c3=O)CC2)cc1	-3%	-17%
Cc1cc(C)c(/C=C/c2onc(C)c2S(=O)(=O)N2CCC(C(=O)NCc3ccco3)CC2)c(C)c1	?	-27%
O=C(CSc1nc2c([nH]c3ccccc32)c(=O)n1-c1ccc(Cl)cc1)c1ccccc1	-8%	-3%
COc1ccc(NC(=O)CN2CCCN(Cc3ccc(Cl)cc3)S2(=O)=O)cc1Cl	?	?
CC1CCc2c(sc(NC(=O)Cc3ccccc3)c2C(=O)Nc2ccc(Cl)cc2)C1 (stereo not given)	-19%	?
CCCCN(CC)CCNC(=O)C1CCN(c2nnc(C)c3c(C)n(-c4ccc(C)cc4)nc23)CC1	-8%	?
CCCOc1ccc(C(=O)Nc2ccc(Cl)c(-c3nc4ncccc4o3)c2)cc1	6%	?
CC(Oc1ccccc1)C(=O)Nc1nnc(S(=O)(=O)N2CCCCCC2)s1 (stereo not given)	-21%	18%
COc1ccc(C(=O)c2c(N)c(C(=O)Nc3ccccc3Cl)c3ccccn23)cc1	-19%	-15%
COc1ccc(OC)c(CNC(=O)CCCn2nc(C)c3c(C)n(-c4ccc(C)cc4)nc3c2=O)c1	?	?
CCOC(=O)c1c(C)[nH]c(CCC(=O)NCc2cccc(C)c2)c1C	-13%	-2%
COc1ccc(Br)cc1Cn1nnc(C(=O)Nc2cccc(SC)c2)c1N	?	-7%
Cc1ccc(Cl)cc1NC(=O)/C(C#N)=C\c1cn(Cc2ccc(F)cc2)c2ccccc12	-3%[11.5 µM]	?
Cc1ccc(S(=O)(=O)N2CCCc3cc(NC(=O)c4ccccc4Cl)ccc32)cc1	?	-12%
Cc1cccc(CSc2cn(CC(=O)N3CCCCC3)c3ccccc23)c1	-7%	?
O=C(Nc1ccc2oc(-c3cccnc3)nc2c1)c1ccc(-c2ccc(OC(F)(F)F)cc2)o1	-21%	2%
Cn1c(=O)c(F)c(Nc2ccc(I)cc2F)c2c(=O)n(C[C@@H](O)CO)cnc21	?	.
Cc1cc(=O)n(CC(=O)N2CCCCC2)c2c1c(C)nn2C	-3%	-1%
CCOC(=O)c1cccc(NC(=O)c2ccc3c(c2)nnn3CC)c1	-18%	11%

For convenience, 5 of the compounds above.
SMILES	HTT prom inh	PMP22 txn
Cc1cccc(CSc2cn(CC(=O)N3CCCCC3)c3ccccc23)c1	-7%	?
O=C(Nc1ccc2oc(-c3cccnc3)nc2c1)c1ccc(-c2ccc(OC(F)(F)F)cc2)o1	-21%	2%
Cn1c(=O)c(F)c(Nc2ccc(I)cc2F)c2c(=O)n(C[C@@H](O)CO)cnc21	?	.
Cc1cc(=O)n(CC(=O)N2CCCCC2)c2c1c(C)nn2C	-3%	-1%
CCOC(=O)c1cccc(NC(=O)c2ccc3c(c2)nnn3CC)c1	-18%	11%

Compound profiles (already shown):
`CCCCN(CC)CCNC(=O)C1CCN(c2nnc(C)c3c(C)n(-c4ccc(C)cc4)nc23)CC1` reads HTT prom inh: -8%; PMP22 txn: ?
`CCOC(=O)c1cccc(NC(=O)c2ccc3c(c2)nnn3CC)c1` reads HTT prom inh: -18%; PMP22 txn: 11%

Next section
SMILES	HTT prom inh	PMP22 txn
COCCn1ccc2c(OCC(=O)Nc3cccc(C(F)(F)F)c3)cccc2c1=O	?	?
Cc1cc(C)cc(N2C(=O)CSC23C(=O)N(CC(=O)NC2CCCCC2)c2ccccc23)c1 (stereo not given)	?	?
Cc1ccc2ccc3cc(C(=O)N4CCN(c5ccccc5F)CC4)nc3c2[nH]1	-27%	-14%
COc1ccc(CC(=O)Nc2c(C(=O)N3CCN(c4ccccc4)CC3)oc3ccccc23)cc1OC	?	-41%
Cc1ccc(OCCSc2nc(C)c(Cc3ccccc3)c(=O)[nH]2)cc1	-12%	-2%
Cc1nn(C(=O)c2cccc([N+](=O)[O-])c2C)c(C)c1S(=O)(=O)N1CCCCCC1	-3%	-24%
CCOc1ccc(C(=O)Nc2cccc(C(=O)OCc3cc(=O)n4cc(C)sc4n3)c2)cc1	?	-19%
CCOc1ccc2nc(N3CCN(C(=O)CS(=O)(=O)c4ccc(F)cc4)CC3)sc2c1	?	?
COc1cccc(NC(=O)C2CCCN2S(=O)(=O)c2ccc3nc(-c4ccccc4)[nH]c3c2)c1 (stereo not given)	-24%	?
Cc1cc(C)c(Cn2c3ccccc3c3cnn(CC(=O)NCC(C)c4ccccc4)c(=O)c32)c(C)c1 (stereo not given)	-12%	-32%
CC(=O)Nc1ccc(NC(=O)c2ncoc2-c2ccco2)cc1	11%	-8%
CCC(C)NC(=O)c1ccccc1NC(=O)CN1C(=O)c2cccc3cccc1c23 (stereo not given)	-14%	-4%
CCOc1cc(S(=O)(=O)n2ccnc2C(C)C)ccc1Cl	-8%	-13%
Cc1ccc(NS(=O)(=O)c2cnc(N)nc2)c(C)c1	0%	-2%
COc1ccc(C)cc1Nc1nc2cc(Cl)c(Cl)cc2nc1-n1nc(C)cc1C	7%	1%
Cc1ccccc1NC(=O)C(=O)NCC1(c2ccccc2)CCCC1	-14%	-5%
COc1cc(Nc2ncc(F)c(Nc3ccc4c(n3)NC(=O)C(C)(C)O4)n2)cc(OC)c1OC	-6%	.
COc1ccc(NC(=O)C2CCN(S(=O)(=O)c3cccc(-c4noc(C)n4)c3)CC2)cc1OC	-30%	17%
C=CCC(CC=C)(CNC(=O)C(=O)Nc1ccc(C)cc1)c1ccccc1	35%[activator]	1%
COc1cccc(NC(=O)CCN2C(=O)c3ccccc3Sc3ncccc32)c1	-5%	-6%
C[C@@]12C(=O)OC(=O)[C@]1(C)C1CCC2O1	?	.
CCN(CC)CCNC(=O)C1CCCN(c2nnc(C)c3c(C)n(-c4ccc(Cl)cc4)nc23)C1 (stereo not given)	-22%	?
COc1ccc(CCNS(=O)(=O)c2ccc(N3CCCCS3(=O)=O)cc2)cc1	?	-17%
Cc1cccc(C)c1NC(=O)C1CCN(S(=O)(=O)c2cccc3nsnc23)CC1	-5%	-6%
Cc1ccc(CN2CCc3nc(N4CCN(C)CC4)ncc3C2)cc1	-21%	-15%
Continued.
SMILES	HTT prom inh	PMP22 txn
Cc1ccc(C)c(N2CCN(c3nc4ccccc4c4nc(-c5cccnc5)nn34)CC2)c1	-6%	-1%
Cc1ccc(CNC(=O)C2COc3ccccc3C2)cc1 (stereo not given)	59%[activator]	-26%
O=C(Cn1c(=O)n(Cc2ccco2)c(=O)c2ccccc21)Nc1cccc(F)c1	-14%	2%
Cc1cccc(C(=O)N2c3ncnn3C3(CCCCC3)[C@@H]3CCCC[C@@H]32)c1	-36%	-30%
Cc1ccc(NC(=O)CN2C(=O)C(c3ccc(F)cc3)=NC2(C)C)c(C)c1	-17%	-11%
CCCCn1c2ccc(F)cc2c2nnc(SCCN3CCCCC3)nc21	-5%	?
COC(=O)c1cc(NC(=O)c2cnc(SC)nc2-c2ccccc2)cc(C(=O)OC)c1	-16%	-3%
Cc1cccc(OCCSc2nc3ccc(NC(=O)COc4ccccc4C)cc3s2)c1	-8%	?
Cc1ccccc1NC(=O)c1c(NC(=O)Cc2ccccc2)sc2c1CCC2	-12%	0%
CC(O)CCCCn1c(=O)c2c(ncn2C)n(C)c1=O (stereo not given)	1%	.
CCc1ccc(CNC(=O)c2cc3cc4ccc(OC)cc4nc3o2)cc1	-1%	-15%
CCOC(=O)c1c(C)oc2nc(C)nc(NCCc3ccc(C)cc3)c12	-5%	4%
COc1ccc(-n2nnnc2C2CCN(S(=O)(=O)c3ccc(F)cc3Cl)CC2)cc1	?	-11%
CCOc1ccc(CN(C(=O)c2cc(=O)c3cc(Cl)ccc3o2)C2CCS(=O)(=O)C2)cc1 (stereo not given)	-2%	-18%
O=C(O)c1cccc(-n2cnc3cccnc32)c1	-18%	14%
Cc1cc(C)cc(OCC(=O)N2CCC(c3nc4ccccc4o3)CC2)c1	-10%	-18%
CC(C)(C)OC(=O)N1CCC(c2c(C(=O)NC3CCCCC3)cnn2-c2cccc(F)c2)CC1	-8%	?
CNC(=O)c1ccc(-c2cnc3ncc(Cc4ccc5ncccc5c4)n3n2)cc1F	-11%	.
CCC12CN3CC(C)(CN(C1)C3c1c(C)[nH]c3ccccc13)C2=O (stereo not given)	?	9%
Cc1ccc(NC(=O)CSc2nc3c(oc4ccccc43)c(=O)n2Cc2ccco2)cc1F	-11%	?
Cc1ccccc1C(=O)Nc1sc2c(c1C(=O)N1CCC(C)CC1)CCCC2	?	-11%
COc1ccc(C)cc1NC(=O)C1CCCN(S(=O)(=O)c2ccc3c(c2)oc(=O)n3C)C1 (stereo not given)	?	-36%
O=C(Nc1ccccc1)c1ccc2c(O)c(S(=O)(=O)c3ccc(Cl)cc3)c(=O)[nH]c2c1	-13%	8%
Cc1cc(F)ccc1Nc1nc2ccccc2n2nnnc12	-14%	-11%
CSc1ncc2c(n1)-c1ccccc1N(Cc1ccccc1C)S2(=O)=O	-14%	?
CCCNc1ccc(-c2nc(-c3ccco3)no2)cc1[N+](=O)[O-]	51%[activator]	3%
N#Cc1ccccc1NS(=O)(=O)c1ccc(N2CCCCS2(=O)=O)cc1	-7%	21%
COc1ccc(OC)c(NC(=O)Cn2ccn(-c3ccc(F)cc3)c(=O)c2=O)c1	-23%	0%
Cc1cccc(CNC(=O)C(=O)Nc2ccccc2C)c1	22%	-20%
